# Assay outcomes: PubChem, National Center for Advancing Translational Sciences (NCATS)
# hNpr1 antagonist: human Npr1 receptor antagonism | P16066 | HEK293 hNpr1 GloSensor cGMP, ANP-stimulated luminescence | Potency, µM (top dose mostly 46.3 µM), for inactives: at the top dose activity change, negative = inhibition, actives largely listed as inhibitors | 76,000 tested, 1.6% active | AID 1347048; active = well fitted inhibition curve with a large enough effect; inconclusive = small, poorly fitted or top-dose-only effect; inactive = no such curve, though single readings can be large or run the other way;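 note: nearly all actives have a fitted effect of over 60% in size; nearly all hits also lower the signal before the agonist is added; a reference antagonist and vehicle were the controls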
# Target sequence (P16066 whole entry, looked up): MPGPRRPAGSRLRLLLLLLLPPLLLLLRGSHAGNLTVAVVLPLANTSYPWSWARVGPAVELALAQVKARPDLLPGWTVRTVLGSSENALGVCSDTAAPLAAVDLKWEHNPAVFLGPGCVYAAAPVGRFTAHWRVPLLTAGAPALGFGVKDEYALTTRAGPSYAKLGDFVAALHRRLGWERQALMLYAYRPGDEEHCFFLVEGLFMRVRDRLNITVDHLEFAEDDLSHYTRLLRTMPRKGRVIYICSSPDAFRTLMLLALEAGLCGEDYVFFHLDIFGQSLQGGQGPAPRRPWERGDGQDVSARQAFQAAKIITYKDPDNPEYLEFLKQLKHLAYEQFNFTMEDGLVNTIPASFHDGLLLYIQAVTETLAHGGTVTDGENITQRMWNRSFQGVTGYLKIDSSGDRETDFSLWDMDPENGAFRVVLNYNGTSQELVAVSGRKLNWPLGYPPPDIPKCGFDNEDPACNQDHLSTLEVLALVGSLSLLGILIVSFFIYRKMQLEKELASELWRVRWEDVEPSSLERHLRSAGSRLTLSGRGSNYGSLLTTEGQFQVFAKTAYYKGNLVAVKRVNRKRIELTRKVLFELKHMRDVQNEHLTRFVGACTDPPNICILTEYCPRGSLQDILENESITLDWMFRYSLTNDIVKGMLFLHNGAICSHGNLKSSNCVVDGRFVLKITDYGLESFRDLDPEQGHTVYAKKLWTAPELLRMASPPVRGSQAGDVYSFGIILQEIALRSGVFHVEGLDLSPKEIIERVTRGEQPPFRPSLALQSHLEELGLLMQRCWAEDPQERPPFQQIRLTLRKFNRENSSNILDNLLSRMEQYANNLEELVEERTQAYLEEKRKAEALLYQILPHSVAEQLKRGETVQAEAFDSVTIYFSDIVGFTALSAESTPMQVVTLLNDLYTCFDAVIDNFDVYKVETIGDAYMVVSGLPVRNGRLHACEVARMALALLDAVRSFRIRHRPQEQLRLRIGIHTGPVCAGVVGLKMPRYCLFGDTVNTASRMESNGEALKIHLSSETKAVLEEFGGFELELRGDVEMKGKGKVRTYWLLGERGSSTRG
#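 Compound pre-incubated 30 min at room temperature on GloSensor-loaded HEK293 cells stably carrying hNpr1 and the pGS-40F cGMP biosensor. Stimulation uses hNppA at 0.1 nM final; luminescence is taken at baseline and 20 min post-agonist.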
# * = called active by the depositor; ? = inconclusive; [ ] = another dose, or the depositor's remark. % is set by controls: 0 for no effect and ±100 for the full control effect; potency is the fitted concentration of half-maximal effect. An excerpt; count on the stated rates, not on these rows.
SMILES,hNpr1 antagonist
Cc1cccnc1CNC[C@H]1O[C@@H]2C[C@@H](CC(=O)NC(C)C)O[C@@H]2[C@@H]1O,5%[70.6 µM]
COCc1nc(CCNC(=O)c2sc(C)nc2C)no1,-2%
CN1CCN([C@@H]2[C@H](O)[C@H](CO)O[C@@H]2CNS(=O)(=O)c2cccs2)CC1,0%
COCCN(CCOC)CC[C@@H]1CC[C@H](O)[C@@H](C(=O)NCc2ccc(OC)cc2)O1,-8%[70.6 µM]
COc1ccc(-c2cc(C[C@@H]3CC[C@H](O)[C@@H](CNC4CCN(C)CC4)O3)no2)cc1,-25%[70.6 µM]
COc1ccccc1N1CCCc2ncc(C(=O)NCc3cccc(Cl)c3)cc21,-5%[70.6 µM]
Cc1ccc(NC(=O)N2CCc3c(c4ccccc4n3CC3CC3)C2)cc1,-26%
O=C(CCC(F)(F)F)NC1CC(=O)N(Cc2ccccc2Cl)C1 (stereo not drawn),11%
Cc1cccc(CNC(=O)c2cc3c(N(C)Cc4ccccc4)nc(C)cn3n2)c1,6%
COC[C@@H]1CN(C(=O)Cc2ccccc2C)C[C@H]1c1nc(C2CC2)no1,-2%
O=C(c1ccoc1)N1CCN(c2cc(-c3cccs3)[nH]n2)CC1,-5%
Cc1ncc(C(=O)N2CCOCC2CC(=O)N2CCCC2)c(-c2ccccc2)n1 (stereo not drawn),4%
CN(C)c1cccc(C(=O)N2CCNc3cnc(Nc4ccc(N5CCOCC5)cc4)nc3C2)c1,-26%
CC(C)C1CN(S(=O)(=O)C2CC2)CCC(=O)N1Cc1ccc(F)cc1 (stereo not drawn),1%
COC1C(=O)N(c2cccc(F)c2)C12CCN(C(=O)c1cn(C)cn1)CC2 (stereo not drawn),0%
CCCS(=O)(=O)N1CCC(Oc2ccc(-c3noc(C(C)C)n3)cc2)C1 (stereo not drawn),?
OC1(c2csc(CN3CCc4ccccc4C3)n2)CCN(C2CCC2)CC1,4%[70.6 µM]
Cc1noc(C)c1CCC(=O)NC1CCCc2c1[nH]c1c(Cl)cccc21 (stereo not drawn),-30%
O=C1[C@@H]2C[C@@H](CN2Cc2cnc3ccccc3c2)Oc2ccccc2N1CC1CC1,-23%[70.6 µM]
CC(C)(Oc1nn(Cc2cccc(Cl)c2)c2ccccc12)C(=O)N1CC(O)C1,?
O=C1Nc2ccc(/C=C/c3ccccc3)cc2C(=O)N2CC[C@H](NS(=O)(=O)c3cccs3)[C@@H]12,0%
Fc1cccc(-n2cc(CN3CCCC4(CCOC4)C3)cn2)c1 (stereo not drawn),2%
Cc1noc2c(N(C)C)cc(-c3ccc(Cl)cc3)nc12,2%[70.6 µM]
CN(C)C(=O)c1cccnc1OC1CCN(S(=O)(=O)c2ccc(F)c(Cl)c2)C1 (stereo not drawn),5%
COc1ccc(CC(=O)N2CCCN(c3nc4ncccc4o3)CC2)cc1,12%

# The list goes on, overlapping the part above by 2 compounds.
SMILES,hNpr1 antagonist
CN(C)C(=O)c1cccnc1OC1CCN(S(=O)(=O)c2ccc(F)c(Cl)c2)C1 (stereo not drawn),5%
COc1ccc(CC(=O)N2CCCN(c3nc4ncccc4o3)CC2)cc1,12%
COCCN1CC(CO)C2(CCN(C(=O)c3ccc4ncccc4c3)CC2)C1 (stereo not drawn),-1%
N#Cc1ccc(C(=O)NC2CCN(C(=O)N3CC4CC(C3)[C@H]3CCCC(=O)N3C4)CC2)cc1 (stereo partly drawn),2%
CC1Oc2ccc(NC(=O)CC(C)(C)C)cc2CN(Cc2ccccc2F)C1=O (stereo not drawn),-11%
CC1CCC(NC(=O)c2cc(-c3ccc[nH]3)n[nH]2)CC1 (stereo not drawn),5%
CCc1nn(-c2ccc(OC)cc2)c(Oc2cccc(F)c2)c1CCC(=O)N(CC)CC,-7%
CN(C)C(=O)c1cc2c(s1)CCC(C(=O)NCc1ccncc1)C2 (stereo not drawn),-2%
Cc1cc(C)c(CNC(=O)[C@H]2CNC[C@@H](C(=O)N3CCCC3)C2)cn1,7%
CC(C)CC(=O)N1C[C@@H](Oc2cccnc2)C[C@H]1C(=O)NC1CC1,-3%
Cc1cc(C)cc(C2(CNC(=O)C3CC4(CCNCC4)CN3)CCCC2)c1 (stereo not drawn),-12%
CCN1CCC(N2CC[C@@H]3C(=O)NCCCCCCN(Cc4ccncc4)[C@@H]3C2)CC1,3%
CN1CCC(N2CC[C@H](c3nc4ccccc4[nH]3)C2)CC1,4%[70.6 µM]
COc1ccc(-c2cnc3[nH]cc(CC(=O)Nc4cccnc4)c3c2)cc1,?
Cc1c(CC(=O)N2CCC(C#N)CC2)c2c(n1Cc1ccccc1)CCCC2=O,2%
C[C@@H](NC(=O)N1CCC2(CCC(=O)N(CCO)C2)CC1)c1ccccc1,16%
COC(=O)C1=CN(CC(=O)NCc2ccccc2F)S(=O)(=O)N=C1C,5%
CCCN1CCN(C(=O)c2c(C)oc3c2CN(Cc2cccc(F)c2)CC3)CC1,2%
c1cnc2nc(C3CCCCN3)[nH]c2c1 (stereo not drawn),0%[70.6 µM]
CCCNC(=O)N(C1CCOCC1)C1CCN(C(=O)c2cccs2)CC1,3%
COc1ccc(-c2nn(-c3cc(C)ccc3C)c(OC(C)=O)c2-c2ccc(NC(C)=O)cc2)c(OC)c1,-10%
O=C(COCC1CCCCO1)N1CCn2nc(Cc3ccccc3)cc2C1 (stereo not drawn),-2%
CCNC(=O)N[C@H]1CC[C@]2(C)CC[C@@H]([C@H](C)C(=O)NCc3ccccc3)[C@H](O)[C@H]2[C@@H]1C,3%[70.6 µM]
COc1ccc(CN2CC3(CCN(C(=O)Nc4cccc(C)c4)CC3)C2=O)cc1,-25%
COc1ccc(C(=O)N[C@@H]2CCC[C@@H]2C(=O)NC2CCCC2)cc1,-5%
O=C(Cc1ccc(OC(F)(F)F)cc1)Nc1cccn2nc(C3CC3)nc12,-4%
CCNC(=O)Nc1ccc([C@@H](O)[C@H]2COCC(=O)N2Cc2ccccc2)cc1,8%[70.6 µM]
# Next part.
SMILES,hNpr1 antagonist
CC1=C(C(=O)OC(C)C)C(c2ccccc2Cl)CC(=O)N1Cc1c(F)cccc1F (stereo not drawn),-1%
COC1CCC12CCN(C(=O)c1ccccn1)CC2 (stereo not drawn),4%
O=C(C1CCC1)N1CCCC(c2noc(COc3ccccc3F)n2)C1 (stereo not drawn),-13%
Cc1cnn(CCC(=O)N2CCc3nn(CC#N)c(=O)n3CC2)c1,6%
CC(C)C[C@H]1NC(=O)[C@@H]2C[C@@H](NC(=O)CS(=O)(=O)c3ccccc3)CCN2C1=O,1%[70.6 µM]
c1ccc(-c2cc(Cn3cc(-c4cncnc4)nn3)on2)nc1,0%
COCC(=O)N1CCN2C(=O)N(C3CCCCC3)C[C@H]2C1,-2%[70.6 µM]
COc1ccc(-c2nc(CC3CCN(C(=O)c4ccnn4C)C3)no2)cc1 (stereo not drawn),?
O=C(CC1=CCNCC1)N(Cc1ccccn1)CC1CCCO1 (stereo not drawn),4%
COc1cc(NC(=O)N[C@H]2CO[C@H]3[C@@H]2OC[C@@H]3Nc2nccc(-c3cccs3)n2)cc(OC)c1,-17%
COC(=O)c1ccc2nc(C[C@@H]3C[C@@H](C(C)C)[C@H](CN(C)C)C=C3C)[nH]c2c1,-12%[70.6 µM]
COc1cncc(CN2CC[C@@H]3OCC(=O)N(Cc4ccccc4)[C@H]3CC2)c1,-1%[70.6 µM]
CNc1cc(C)nc(N2C[C@H](NC(=O)C3CCOCC3)[C@@H](C3CC3)C2)n1,6%
CCOc1cc(-c2nccn2CCNc2cccnc2)ccc1O,1%
O=C(Cn1nc2n(c1=O)CCCC2)Nc1ccc(Br)cc1,3%
O=C1CC(c2ccccc2)N(C(=O)CNC(=O)C2CCC2)CCCCCCN1 (stereo not drawn),-3%
COCCc1nncn1C1CCN(S(=O)(=O)c2ccc(F)cc2)CC1,4%
CN(Cc1ccccc1)Cc1cc(CC2(NCc3cccnc3)COC2)no1,-18%[70.6 µM]
O=C(NCc1cccnc1)c1nc(-c2cccc(F)c2)c2cnccn12,-19%
CN1CCC(N2CCC[C@@H](O)[C@H](NC(=O)c3ccc(OCc4ccccc4)cc3)C2)CC1,7%
COCC(=O)N[C@H]1CCN(C(=O)COC)[C@H](C(=O)N[C@H](Cc2c[nH]c3ccccc23)C(N)=O)C1,1%
CNC(=O)[C@@H]1C[C@H](n2cc(C(C)(C)NC(=O)c3ccccc3OC)nn2)CN1,4%
Cc1nc(CN2CCOc3c(O)cc(-c4nc5ccccc5s4)cc3C2)no1,-1%
O=C(C1CCC1)N1CCNc2cnc(Nc3ccccc3)nc2C1,-29%[70.6 µM]
CCOc1ccccc1C(=O)N1CCCN(C(=O)C2CC2)c2ccccc21,-8%

# Given with the structure last: 22 of the compounds above.
hNpr1 antagonist | SMILES
6% | Cc1cnn(CCC(=O)N2CCc3nn(CC#N)c(=O)n3CC2)c1
1%[70.6 µM] | CC(C)C[C@H]1NC(=O)[C@@H]2C[C@@H](NC(=O)CS(=O)(=O)c3ccccc3)CCN2C1=O
0% | c1ccc(-c2cc(Cn3cc(-c4cncnc4)nn3)on2)nc1
-2%[70.6 µM] | COCC(=O)N1CCN2C(=O)N(C3CCCCC3)C[C@H]2C1
? | COc1ccc(-c2nc(CC3CCN(C(=O)c4ccnn4C)C3)no2)cc1 (stereo not drawn)
4% | O=C(CC1=CCNCC1)N(Cc1ccccn1)CC1CCCO1 (stereo not drawn)
-17% | COc1cc(NC(=O)N[C@H]2CO[C@H]3[C@@H]2OC[C@@H]3Nc2nccc(-c3cccs3)n2)cc(OC)c1
-12%[70.6 µM] | COC(=O)c1ccc2nc(C[C@@H]3C[C@@H](C(C)C)[C@H](CN(C)C)C=C3C)[nH]c2c1
-1%[70.6 µM] | COc1cncc(CN2CC[C@@H]3OCC(=O)N(Cc4ccccc4)[C@H]3CC2)c1
6% | CNc1cc(C)nc(N2C[C@H](NC(=O)C3CCOCC3)[C@@H](C3CC3)C2)n1
1% | CCOc1cc(-c2nccn2CCNc2cccnc2)ccc1O
3% | O=C(Cn1nc2n(c1=O)CCCC2)Nc1ccc(Br)cc1
-3% | O=C1CC(c2ccccc2)N(C(=O)CNC(=O)C2CCC2)CCCCCCN1 (stereo not drawn)
4% | COCCc1nncn1C1CCN(S(=O)(=O)c2ccc(F)cc2)CC1
-18%[70.6 µM] | CN(Cc1ccccc1)Cc1cc(CC2(NCc3cccnc3)COC2)no1
-19% | O=C(NCc1cccnc1)c1nc(-c2cccc(F)c2)c2cnccn12
7% | CN1CCC(N2CCC[C@@H](O)[C@H](NC(=O)c3ccc(OCc4ccccc4)cc3)C2)CC1
1% | COCC(=O)N[C@H]1CCN(C(=O)COC)[C@H](C(=O)N[C@H](Cc2c[nH]c3ccccc23)C(N)=O)C1
4% | CNC(=O)[C@@H]1C[C@H](n2cc(C(C)(C)NC(=O)c3ccccc3OC)nn2)CN1
-1% | Cc1nc(CN2CCOc3c(O)cc(-c4nc5ccccc5s4)cc3C2)no1
-29%[70.6 µM] | O=C(C1CCC1)N1CCNc2cnc(Nc3ccccc3)nc2C1
-8% | CCOc1ccccc1C(=O)N1CCCN(C(=O)C2CC2)c2ccccc21

# Continuation.
SMILES,hNpr1 antagonist
Cn1ccnc1C(=O)N1CC(c2noc(C3CCCN3CC3CC3)n2)C1 (stereo not drawn),3%
Oc1ccccc1-c1cc(-c2cccnc2)c2cncn2c1,-22%[70.6 µM]
O=C(Cc1ccc(Cl)cc1)N1CCC([C@@H]2CNC[C@H]2CO)CC1,0%
Cc1noc(C)c1CCC(=O)NCc1cccnc1N1CCOCC1,1%
COc1ccc2c(c1)nc1n2[C@@H](CNCc2ccccc2)COC1,-20%[70.6 µM]
O=C(O)c1ccc(CN2CC[C@H](c3nnc(-c4cccnc4)o3)C2)cc1,2%[70.6 µM]
COc1cc(NC(=O)c2c(OC)cc(=O)n3c2CCCC3)cc(OC)c1,1%
O=C1NC2(CCN(C(=O)c3ccc(F)cc3)CC2)Oc2ccccc21,16%[70.6 µM]
COc1ccc(CC(=O)N2C[C@@H](C(=O)O)[C@H](c3ccccc3)C2)c(OC)c1,5%
CC(c1ccon1)N(C)Cc1cnc(S(=O)(=O)C(C)C)n1Cc1ccccc1F (stereo not drawn),6%
COCC(=O)N1CCC(c2nn(-c3ccc(OC)cc3)c(=O)[nH]2)CC1,22%
CCCn1cnc2c1CN(C(=O)c1ccc(F)cc1)[C@H](C(=O)OC)C2,-1%[70.6 µM]
COc1ccc(CNC(=O)O[C@H]2COCCN(c3nc4ccccc4o3)C2)cc1,1%[70.6 µM]
COCc1nnc2n1CCC(NC(=O)COc1ccc(Cl)cc1C)CC2 (stereo not drawn),2%
O=C(CCC1CCN(S(=O)(=O)c2ccccc2)CC1)NCc1ccccc1,-11%
COCCN1C(=O)Cc2ccccc2C1C(=O)NCc1ccc(Cl)cc1 (stereo not drawn),2%

# Looked up above:
# hNpr1 antagonist, O=C(O)c1ccc(CN2CC[C@H](c3nnc(-c4cccnc4)o3)C2)cc1 → 2%[70.6 µM]
# hNpr1 antagonist, Cc1noc(C)c1CCC(=O)NCc1cccnc1N1CCOCC1 → 1%
# hNpr1 antagonist, COCc1nnc2n1CCC(NC(=O)COc1ccc(Cl)cc1C)CC2 (stereo not drawn) → 2%
# hNpr1 antagonist, Oc1ccccc1-c1cc(-c2cccnc2)c2cncn2c1 → -22%[70.6 µM]
